Bioassay records as filed in PubChem.
FPRL1 binder: binds the human formylpeptide receptor-like-1 FPRL1. P25090. FPRL1-expressing cells, fluorescent ligand binding inhibition, flow cytometry. inhibition, %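 (tested at 6.7 µM)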. 24,000 compounds, 0.3% hits. AID 441;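 further: 0% = buffer alone and 100% = receptor blocker peptide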
Target sequence (P25090 whole entry, looked up): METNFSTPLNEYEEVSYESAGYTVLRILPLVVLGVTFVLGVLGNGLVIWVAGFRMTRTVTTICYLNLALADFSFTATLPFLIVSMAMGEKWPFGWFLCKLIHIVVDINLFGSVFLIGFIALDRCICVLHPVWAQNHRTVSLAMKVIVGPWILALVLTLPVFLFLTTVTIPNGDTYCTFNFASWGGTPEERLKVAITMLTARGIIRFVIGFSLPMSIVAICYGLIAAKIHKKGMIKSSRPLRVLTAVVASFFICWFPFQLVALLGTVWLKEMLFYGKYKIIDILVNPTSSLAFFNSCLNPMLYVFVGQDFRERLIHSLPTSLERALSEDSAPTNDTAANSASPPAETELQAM
VCAM-1 imaging: inhibitors of TNFa-induced VCAM-1 surface display, imaging, high-content imaging, pooled HUVEC, TNFa stimulus (AID 456); HUVEC TNFa-induced VCAM-1 surface expression, immunofluorescence imaging; numbers were filed only for top-ranked candidate wells; 10,000 compounds, 0.2% hits; one-dose inhibition, % at 5 µM; IC50 in µM for titrated hits;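 active means top tenth filtered wells with inhibition above zero that passed visual or statistical confirmation; inactive means the rest, including hits rejected on review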;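 further: 0% = stimulated vehicle wells and 100% = unstimulated cells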
VCAM-1 up imaging: enhancers of VCAM-1 display on endothelial cells, imaging, high-content imaging, pooled HUVEC, TNFa stimulus (AID 457); Pooled HUVEC, TNFa-induced VCAM-1 immunofluorescence imaging; hits of this screen are not shown here; calls only; 10,000 compounds, 0.2% hits;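 active means a top-ranked rise in VCAM-1 staining upheld on image or statistical review; inactive means the rest, including candidates rejected on review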;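 further: compounds tested at 5 µM in the well; cells exposed to compound for 24 hours before fixing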
FPR binder: binds the human formylpeptide receptor FPR. FPR-expressing cells, fluorescent ligand binding, flow cytometry. inhibition, %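 (tested at 6.7 µM)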. 24,000 compounds, 0.74% hits;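 further: 0% = buffer wells and 100% = receptor blocker peptide wells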
Target sequence (P21462 whole entry, looked up): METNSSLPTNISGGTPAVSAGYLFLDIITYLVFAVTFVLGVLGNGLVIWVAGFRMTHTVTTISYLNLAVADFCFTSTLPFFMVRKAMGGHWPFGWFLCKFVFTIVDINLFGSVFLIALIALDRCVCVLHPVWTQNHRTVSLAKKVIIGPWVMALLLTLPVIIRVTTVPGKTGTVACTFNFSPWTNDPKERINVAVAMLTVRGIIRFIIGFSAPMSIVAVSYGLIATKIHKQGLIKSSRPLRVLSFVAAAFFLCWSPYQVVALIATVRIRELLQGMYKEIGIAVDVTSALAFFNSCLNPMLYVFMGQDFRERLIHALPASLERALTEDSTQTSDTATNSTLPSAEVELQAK
VCAM-1 down: inhibitors of TNFa-induced VCAM-1 surface display, cell-based, plate reader, pooled HUVEC, TNFa stimulus (AID 454) | 10,000 compounds, 0.2% hits | HUVEC TNFa-induced VCAM-1 surface immunofluorescence, plate reader; numbers were filed only for top-ranked candidate wells | inhibition, % at 5 µM;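 active means compound among top-ranked inhibitors of TNF-induced VCAM-1 adhesion protein staining, with the hit upheld by image or statistical review; inactive means the rest, including hits rejected on review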;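 further: 0% = TNFa with vehicle and 100% = cells without TNFa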
Starred values were filed as active, the others as inactive; i = inactive; · = no result given.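 How the source made its calls, unless noted: active means mean above 30%; inconclusive means self-fluorescent; inactive means the rest.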

SMILES	FPRL1 binder	VCAM-1 imaging	VCAM-1 up imaging	FPR binder	VCAM-1 down
CCOc1ccc(N(CC(=O)N2CCc3ccccc32)S(=O)(=O)c2c(C)noc2C)cc1	-9	·	·	-1	·
COc1ccc(-c2cc(C(=O)Nc3c(C)nn(Cc4ccccc4Cl)c3C)no2)cc1OC	2	·	·	-5	·
Cc1cc(NC(=O)c2cc(-c3cccs3)on2)nn1Cc1ccc(Cl)cc1	2	·	·	4	·
Cn1c(Cn2c(=O)sc3ccccc32)nnc1SCC(=O)NCCc1ccccc1	-7	·	·	-4	·
CCCCN(C)Cc1c(C)[nH]c2ccc(Cl)cc2c1=O	-3	·	·	1	·
C(#Cc1ccccc1)Cn1nnc2ccccc21	-10	i	i	1	i
CC1CCN(C(=O)CSc2ccc3nnc(-c4ccc(F)cc4)n3n2)CC1	1	·	·	3	·
Cc1nc2c(C(=O)NCc3ccc4c(c3)OCO4)c[nH]n2c(=O)c1Cl	4	·	·	8	·
Cc1ccc(NCc2nnc(SCC(=O)N3CCCCC3)n2CC2CCCO2)c(C)c1 (centres undefined)	4	i	i	0	i
O=C(NCc1ccc2c(c1)OCO2)c1c[nH]c2ccc(S(=O)(=O)N3CCOCC3)cc2c1=O	-1	·	·	-2	·
CCc1nc(N)c(C#N)c(-c2ccncc2)c1C	-6	i	i	-5	i
CCCC(=O)NCCc1cc2cc(C)c(C)cc2[nH]c1=O	0	·	·	4	·
O=C1OC2(c3ccccc3)C3CCCC2C13	18	i	i	13	i
CCOC(=O)N1CCN(c2c(-c3ccc(C)c(C)c3)c(=O)c2=O)CC1	1	·	·	5	·
CCOC(=O)C(C#N)C(c1cccnc1)c1c(C)[nH][nH]c1=O (centres undefined)	2	i	i	-4	i
CC1(C)CC(=O)C(CC2=C(O)CC(C)(C)CC2=O)=C(O)C1	-4	i	i	8	i
CCOC(=O)N1CCC(NC(=O)C(C)n2c3ccccc3c3cnn(C)c(=O)c32)CC1 (centres undefined)	6	·	·	4	·
CN(C)CCCOC(=O)CCc1ccccc1	1	i	i	-4	i
Cc1nn(Cc2nc(-c3cccs3)no2)c(C)c1Br	0	·	·	0	·
O=C1C(=O)N(Cc2cccnc2)C(c2ccccn2)/C1=C(/O)c1ccc(Br)cc1 (centres undefined)	7	·	·	1	·
O=C(c1ccccc1)N1CCN(Cc2ccccc2Br)CC1	0	i	i	-6	i
COc1ccc(-c2noc(CN3CCN(c4ccccc4)CC3)n2)cc1	-3	·	·	1	·
CC(NC(=O)Nc1nnc(C(F)(F)F)s1)N1C(=O)C2C3C=CC(C3)C2C1=O (centres undefined)	-3	·	·	5	·
CC12CC(NC(=O)N1c1ccc(C(=O)N3CCN(c4ccc(F)cc4)CC3)cc1)c1ccccc1O2 (centres undefined)	4	·	·	1	·
Cc1ccc2c(c1)CCCN2C(=O)c1ccc2c(c1)OCO2	0	i	i	-3	i

Next structures.
SMILES	FPRL1 binder	VCAM-1 imaging	VCAM-1 up imaging	FPR binder	VCAM-1 down
C=C(C)Cn1c(CCNC(=O)CCC)nc2ccccc21	-2	·	·	-6	·
Cn1nnnc1SCC(=O)N1CCN(c2cccc(Cl)c2)CC1	-6	i	i	9	i
N[C@@H](Cc1cc(I)c(Oc2ccc(O)c(I)c2)c(I)c1)C(=O)O	-4	i	i	14	i
COc1ccc(CN2CCN(C(=O)CN3C(=O)C4C5C=CC(C5)C4C3=O)CC2)c(OC)c1OC (centres undefined)	11	·	·	-4	·
COc1ccc(C(=O)Nc2ccc(Cl)cn2)cc1Cl	-4	·	·	3	·
CC(=O)c1cccc(NC(=O)CC2Oc3ccc(C)cc3NC2=O)c1 (centres undefined)	-4	·	·	-1	·
Fc1ccc(-c2nnc(CN3CCN(c4ncc(C(F)(F)F)cc4Cl)CC3)o2)cc1	2	i	i	12	i
CCOC(=O)N1CCC(N2C(=O)c3ccc(C(=O)O)cc3C2=O)CC1	1	·	·	8	·
Nc1nc2n(n1)C(c1cccc(Br)c1)CC(c1ccccc1)N2 (centres undefined)	-4	i	i	-1	i
COc1ccc(-n2ncc3c(N4CCN(c5cccc(C)c5C)CC4)ncnc32)cc1	-2	i	i	7	i
CCOC(=O)C1CCCN(C(=O)Cc2ccc(OC)c(OC)c2)C1 (centres undefined)	-4	i	i	1	i
Cc1cccc2nc(Cn3c(=O)n(CCCC(=O)NCc4ccco4)c(=O)c4ccccc43)cc(=O)n12	6	·	·	5	·
COc1cccc(CNC(=O)c2cc3oc4ccccc4c3n2C)c1OC	2	·	·	-2	·
COc1ccc(C2(CNC(C)=O)CCOCC2)cc1OC	-1	·	·	-1	·
COC(=O)c1ccc(C2C(C(=O)Nc3ccc(C)cc3C)=C(C)Nc3ncnn32)cc1 (centres undefined)	-6	·	·	-8	·
C/C(=C\C(=O)O)CC(=O)O	-2	i	i	0	i
COc1ccc(CCNC(=O)c2cc(-c3ccccc3OC)on2)cc1OC	3	·	·	2	·
O=C(CSc1nc2c(c(=O)n1-c1ccc(Cl)cc1)SCC2)N1CCCC1	4	·	·	4	·
CCOc1ccc(NC(=O)NC2CCOC(C)(C)C2)cc1 (centres undefined)	0	·	·	-5	·
CN(CC(=O)Nc1ccc(Cl)cc1)S(=O)(=O)c1cccc2cccnc12	2	·	·	-3	·
COc1ccc(N2C(N)=C(C#N)C(c3cccnc3)C3=C2CC(C)(C)CC3=O)cc1 (centres undefined)	-3	i	i	0	i
CCOC(=O)N1CCN(C(=O)c2ccc3c(c2)sc2nc(-c4ccc(OC)cc4)cn23)CC1	-4	·	·	1	·
CCCn1c(=N)n(CCOc2ccc(OC)cc2)c2ccccc21	-6	i	i	4	i
COc1ccc(-c2nc(CS(=O)CC(=O)NCC3CCCO3)c(C)o2)cc1 (centres undefined)	6	·	·	4	·
O=C(Nc1cccc(F)c1)c1cc(S(=O)(=O)N2CCC(C(=O)O)CC2)ccc1F	8	·	·	0	·

3 entries from above, reformatted.
Results follow in this order: FPRL1 binder | VCAM-1 imaging | VCAM-1 up imaging | FPR binder | VCAM-1 down
COc1ccc(-c2nc(CS(=O)CC(=O)NCC3CCCO3)c(C)o2)cc1 (centres undefined)
    6 | · | · | 4 | ·
COc1cccc(CNC(=O)c2cc3oc4ccccc4c3n2C)c1OC
    2 | · | · | -2 | ·
O=C(Nc1cccc(F)c1)c1cc(S(=O)(=O)N2CCC(C(=O)O)CC2)ccc1F
    8 | · | · | 0 | ·

(more compounds)
SMILES	FPRL1 binder	VCAM-1 imaging	VCAM-1 up imaging	FPR binder	VCAM-1 down
Cc1ccc(Cn2c(CN3CCOCC3)nc3c2c(=O)[nH]c(=O)n3C)cc1	-7	·	·	7	·
Cn1c(=O)c2sccc2n2c(CCCC(=O)NCc3ccc4c(c3)OCO4)nnc12	1	·	·	-2	·
COc1ccc(Br)cc1CNC(=O)C1CCCN(c2nc3ccccc3o2)C1 (centres undefined)	3	·	·	-3	·
N#Cc1ccc(CSc2nnc(-c3cccs3)n2-c2ccccc2)cc1	2	i	i	-1	i
CCOC(=O)CSc1nc2ccccc2c(=O)n1CC1CCC(C(=O)NCc2ccco2)CC1 (centres undefined)	-1	·	·	1	·
CCOc1cc(C2C(C(=O)c3ccccc3)=C(C(=O)OC)Nc3nnnn32)ccc1O (centres undefined)	3	i	i	8	i
CCCCC[C@H](O)/C=C/[C@H]1C=CC(=O)[C@@H]1C/C=C\CCCC(=O)O	0	i	i	-3	i
COc1ccccc1NC(=O)c1cnc2n(c1=O)CCS2	0	·	·	1	·
CCN1C(=O)CSc2ccc(C(=O)NC3CCCCC3)cc21	3	·	·	-2	·
CCOc1ccc2nc(NC(=O)c3ccc(S(=O)(=O)N4CCOCC4)cc3)sc2c1	-2	·	·	1	·
Cc1ccc2[nH]c(=O)c(CN(Cc3ccc4c(c3)OCO4)Cc3nnnn3Cc3ccco3)cc2c1	-1	i	i	-2	i
CCOc1ncccc1C(=O)Nc1ccc(Cl)cc1	-6	i	i	1	i
CCOc1ccccc1Nc1nnc(C)c(=O)[nH]1	3	·	·	-2	·
Fc1cc(F)c2nc(N3CCCCC3)sc2c1	2	·	·	1	·
COc1cc(OC)c(C#N)c(S(=O)Cc2ccccc2)c1 (centres undefined)	-1	·	·	-1	·
O=C(C1CCCN(Cc2cccnc2)C1)N1CCCCC1 (centres undefined)	-22	·	·	-12	·
COc1ccc(CNC(=O)c2cc(-c3ccccc3OC)on2)cc1	1	·	·	-4	·
Cn1c(/C(C#N)=C/Nc2ccccn2)nc2ccccc21	4	i	i	-2	i
O=C(NCCN1CCOCC1)c1ccc(CS(=O)(=O)c2c(Cl)cccc2Cl)o1	1	·	·	2	·
Cc1cc(=O)[nH]c(SCC(=O)NCc2ccco2)n1	9	i	i	10	i
CCOc1ccc(C(CC(=O)O)NC(=O)COc2ccccc2)cc1 (centres undefined)	1	·	·	1	·
Cc1cc(NC(=O)C2CC(c3ccc(F)cc3)=NO2)n(-c2ccccc2)n1 (centres undefined)	-5	·	·	-1	·
COC(=O)CN1C(=O)C(O)(CC(=O)c2ccc(C)cc2)c2cc(Br)ccc21 (centres undefined)	3	i	i	0	i
O=C1c2ccccc2C(=O)N1c1cccc(-c2nc3ccccc3o2)c1	-4	i	i	-4	i
CCN(CC)S(=O)(=O)c1ccc(NC2c3ccccc3C(=O)N2Cc2ccc3c(c2)OCO3)cc1 (centres undefined)	0	·	·	-1	·

Next section.
SMILES	FPRL1 binder	VCAM-1 imaging	VCAM-1 up imaging	FPR binder	VCAM-1 down
CCN(CC(=O)NC1CCS(=O)(=O)C1)C(=O)C(c1ccccc1)c1ccccc1 (centres undefined)	2	i	i	-2	i
CCN1CCN(C(=O)c2cc3c(-c4ccc(Cl)cc4)nn(C)c3s2)CC1	2	·	·	6	·
COc1cc(NC(=O)c2csc3c2CCCC3)ncn1	-4	·	·	-1	·
O=C(CC(C(=O)N1CCc2ccccc21)n1ccnc1)NCc1cccnc1 (centres undefined)	14	i	i	6	i
CS(=O)(=O)N1CCN(c2ccccc2NC(=O)c2ccc(-c3ccc(Cl)cc3Cl)o2)CC1	0	71%*	i	13	i
CCc1ccc(NC(=O)CSc2nc3c(c(=O)n(C)c(=O)n3C)n2C)cc1	1	·	·	4	·
COc1cccc(NC(=O)N[C@@H](Cc2ccccc2)C(=O)O)c1	2	i	i	2	i
Cc1ccc2cc(CN(Cc3ccc(F)cc3)Cc3nnnn3C3CCCC3)c(=O)[nH]c2c1	-3	i	i	3	i
Cc1ccc(C(=O)Nc2c(C(=O)N3CCOCC3)cnn2-c2ccccc2)cc1	-1	i	i	9	i
CCOc1ccccc1N1C(=O)CC(Sc2ncccc2C(=O)O)C1=O (centres undefined)	-3	i	i	6	i
COCCSc1nnc(NC(=O)Cc2ccccc2OC)s1	1	i	i	4	i
COc1ccc(S(=O)(=O)NCC(c2cccnc2)N2CCN(c3ccc(F)cc3)CC2)cc1C (centres undefined)	-17	i	i	1	i
CCOC(=O)N1CCN(C(=O)c2ccc3c(SCC(=O)O)c4c(nc3c2)CCCC4)CC1	7	i	i	8	i
OC(CCN1CCCC1)(c1ccccc1)C1CCCCC1 (centres undefined)	1	i	i	-5	i
CCOc1ccccc1N1CCN(c2nc(N)c(C#N)c(CC#N)c2C#N)CC1	-6	i	i	1	i
CCCOc1ccc(C2C(C(=O)c3ccc(C)o3)=C(O)C(=O)N2CCCn2ccnc2)cc1 (centres undefined)	2	·	·	53*	·
N#C/C(=C(/O)COC(=O)CCC1CCCCC1)c1nc2ccccc2[nH]1	-1	i	i	-7	i
Cc1ccccc1CN1CCN(CC(=O)NCCCN2CCN(c3ccc(F)cc3)CC2)C1=O	0	·	·	-5	·
CCN(CCNC(=O)C1CCCN(Cc2nc(-c3ccc(OC)cc3)oc2C)C1)c1ccccc1 (centres undefined)	3	·	·	3	·
Cc1sc2nc(CN3CCN(S(=O)(=O)c4cccc5nonc45)CC3)[nH]c(=O)c2c1C	2	i	i	1	i
COc1ccc(OCCSc2ncnc3nc[nH]c23)cc1	0	·	·	2	·
O=C(CCCn1c(SCC(=O)NCC2CCCO2)nc2ccccc2c1=O)NCC1CCCO1 (centres undefined)	1	·	·	-4	·

An excerpt from above in order of molar mass, lowest first.
SMILES	FPRL1 binder	VCAM-1 imaging	VCAM-1 up imaging	FPR binder	VCAM-1 down
COc1ccc(OCCSc2ncnc3nc[nH]c23)cc1	0	·	·	2	·
Cc1ccccc1CN1CCN(CC(=O)NCCCN2CCN(c3ccc(F)cc3)CC2)C1=O	0	·	·	-5	·
COc1ccc(S(=O)(=O)NCC(c2cccnc2)N2CCN(c3ccc(F)cc3)CC2)cc1C (centres undefined)	-17	i	i	1	i
O=C(CCCn1c(SCC(=O)NCC2CCCO2)nc2ccccc2c1=O)NCC1CCCO1 (centres undefined)	1	·	·	-4	·

The list is partial; the hit share may differ from the screen's.
